Assay outcomes: PubChem, National Center for Advancing Translational Sciences (NCATS)
ClpP mod = qHTS Assay for Activators of ClpP; ATP-dependent Clp protease proteolytic subunit (Bacillus subtilis (strain 168)), P80244; purified B. subtilis ClpP, FRET peptide cleavage, 20 min; Potency, µM (series often up to 57.5 µM), for inactives: at the top dose activity change, negative = active; 340,000 compounds, 1.9% hits; AID 651965, 2013; active = well fitted falling curve with a large enough effect; inconclusive = small, poorly fitted or top-dose-only effect; inactive = no such curve, though single readings can be large or run the other way; further: potency means the concentration at half of the fitted maximal effect; the source files actives as falling curves though it sought activators and does not explain the sign; nearly all actives have a fitted effect of over 65% in size; many hits overshoot -100%
Target sequence (P80244 whole entry, looked up): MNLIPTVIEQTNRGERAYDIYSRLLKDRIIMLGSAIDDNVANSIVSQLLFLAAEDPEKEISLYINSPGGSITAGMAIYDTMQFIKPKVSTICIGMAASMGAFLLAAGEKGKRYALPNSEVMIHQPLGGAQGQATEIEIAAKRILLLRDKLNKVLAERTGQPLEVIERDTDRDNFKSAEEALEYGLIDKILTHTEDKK
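Buffer: 100 mM Tris/HCl pH8, 100 mM KCl, 0.05% low protease BSA, 2.5% glycerol, 0.01% Tween-20. ClpP 10 microg/mL final; 20 min RT; delta FRET normalized to ADEP and DMSO controls.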
Sfp inh = Sfp phosphopantetheinyl transferase inhibition | Q9F4F7 | Biochemical Sfp PPTase activity, qHTS | Potency, µM, inactives show max response, negative = inhibition, most hits filed as inhibitors | 310,000 compounds, 3.5% hits; active means well fitted inhibition curve with a large enough effect; inconclusive means small, poorly fitted or top-dose-only effect, or another doubt; inactive means no such curve, though single readings can be large or run the other way;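 further: the enzyme is Sfp with the accession as filed and its product quenches rhodamine fluorescence; potency means the concentration at half of the fitted maximal effect; 0% = enzyme reaction without inhibitor and -100% = no enzyme wells; top concentration of the series not given in the record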
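With Hepes-Na pH 7.6 buffer containing 10 mM MgCl2, Sfp (15 nM) modified BHQ-2-YbbR (12.5 uM) using rhodamine-CoA (5 uM). Two reads 30 minutes apart at 525/598 nm yielded each well's rate.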
gsp antag = antagonists of gsp mutant (McCune-Albright syndrome); gsp-mutant cells, cAMP HTRF, 30 min; control for the full effect not named in the record; Potency, µM (doses to about 76.9 µM), for inactives: at the top dose activity change, negative = inhibition, actives largely listed as inhibitors; 340,000 compounds, 0.4% hits; active = falling curve of any shape with a large fitted effect; inconclusive = falling curve, mostly with a smaller effect; inactive = flat or rising curve; cell line not stated here;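 further: intracellular cAMP measured with PDE inhibitor Ro 20-1724 present during compound exposure; potency means the concentration at half of the fitted maximal effect; on the % scale 0 is the no-effect control and ±100 the full control effect; nearly all actives have a fitted effect of over 65% in size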
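HTRF cAMP read-out (cAMP-d2 plus anti-cAMP antibody-K in lysis buffer, 30 min RT). Before lysis, cells are exposed to compounds with […] for 30 min at 37C in DPBS containing Ca/Mg, BSA and Tween 20.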
Menin MLL FP FL = inhibitors of human menin-MLL interaction, wild-type MLL peptide. Fluorescence polarization, fluorescein-MLL peptide displacement from menin. FP activity change, % at 61.4 µM. 290,000 tested, under 10 active. AID 1766; inconclusive = falling polarisation curve, or a change in total fluorescence; inactive = total fluorescence flat and polarisation flat or rising; no compound was filed as active; the % refers to the polarisation; negative = inhibition;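 further: % of control where 0% means no effect; inhibitors lower the polarisation; unlabelled MLL peptide was the positive control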
PINK1 expr mod = PINK1 expression modulation | PINK1 immunofluorescence, high-content cytometry, 24 h | Potency, µM (doses to about 76.6 µM), for the others: top-dose activation (PINK1 increase), hits mostly activators | 410,000 compounds, 0.2% hits; active = well fitted activation curve with a large enough effect; inconclusive = small, poorly fitted or top-dose-only effect; inactive = flat fitted curve, though single readings scatter; cell line not stated here;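 further: potency means the concentration at half of the fitted maximal effect; % of control where 0% means no effect; nearly all actives have a fitted effect of over 65% in size; a mitochondrial uncoupler was the plate control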
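Measures PINK1 amount and localization on or inside mitochondria by immunofluorescence. Stable cells get compounds at 5 concentrations for 24 hours before fixation and staining; CCCP controls included.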
gsp ag = activates gsp, the McCune-Albright syndrome mutation; gsp mutant cells, cAMP HTRF, 30 min; control for the full effect not named in the record; Potency, µM (doses to about 76.9 µM), for inactives: top-dose activation (cAMP increase), hits mostly activators; 340,000 compounds, 0.13% hits; active = well fitted activation curve with a large enough effect; inconclusive = small, poorly fitted or top-dose-only effect, or another doubt; inactive = no such curve, though single readings can be large or run the other way; cell line not stated here;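 further: phosphodiesterase inhibitor Ro 20-1724 added with compounds to block cAMP breakdown; potency means the concentration at half of the fitted maximal effect; nearly all actives have a fitted effect of over 60% in size; about a fifth of the inactives were tested at one dose only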
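Cells stably selected in G418 were plated at 2000/well, grown 16-24 hr, then given compounds in DMSO with the PDE inhibitor […] (300 uM solution added) for 30 min at 37C; cAMP was read by HTRF.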
D2 agonist = human D2 receptor agonism in beta-arrestin assay; 360,000 compounds, 0.084% hits; activation, % (no concentration beside the values); P14416; DiscoveRx PathHunter D2 beta-arrestin, luminescence, 90 min; 100% = 57 uM dopamine signal; in the data active = activation above about 40%; inconclusive = about 15% to 40%; inactive = below about 15%; further: compound concentration not given in the record; the text of the record calls up to 30% inactive
Target sequence (P14416 whole entry, looked up): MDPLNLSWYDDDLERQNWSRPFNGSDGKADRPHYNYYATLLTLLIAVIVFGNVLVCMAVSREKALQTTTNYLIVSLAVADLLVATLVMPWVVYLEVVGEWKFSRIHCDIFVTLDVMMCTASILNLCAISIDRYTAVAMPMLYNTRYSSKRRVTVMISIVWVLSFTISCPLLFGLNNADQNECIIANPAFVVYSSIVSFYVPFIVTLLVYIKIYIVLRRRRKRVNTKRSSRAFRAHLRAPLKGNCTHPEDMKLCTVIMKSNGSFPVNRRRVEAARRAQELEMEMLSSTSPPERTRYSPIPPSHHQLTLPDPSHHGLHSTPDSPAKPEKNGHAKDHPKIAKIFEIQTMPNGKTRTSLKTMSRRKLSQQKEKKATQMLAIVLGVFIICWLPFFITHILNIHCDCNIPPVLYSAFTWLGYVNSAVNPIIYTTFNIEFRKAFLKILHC
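Agonist mode: compounds alone added to overnight-plated D2 PathHunter cells for 90 min at 37 C, with 57 uM final dopamine (EC100) defining full response. Beta-arrestin recruitment detected by chemiluminescent reagent, read after 1 h at ambient temperature.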
An asterisk follows results filed as active; ? = inconclusive; . = not tested or not shown; & = joins results of further samples; [ ] = another dose, or the depositor's remark.

SMILES	ClpP mod	Sfp inh	gsp antag	Menin MLL FP FL	PINK1 expr mod	gsp ag	D2 agonist
O=C(O)c1n[nH]c2ccccc12	-0.6%	-3%	-3%	4.9	-1.8%	-20%	-3.6
COc1ccc(/C=C(/C#N)C(=O)Nc2ccc(C)cc2C)cc1C(=O)O	-2.1%	5%	-4%	-0.5	0.7%	6%	-1.8
Cc1cc(=O)[nH]c(NNC(=O)c2ccc(Cl)cc2)n1	-0.4%	.	.	.	-1.6%	-3%	-2.3
CCc1c(C)nc2cc(-c3ccc(OC)c(OC)c3)nn2c1NCC1CC1	?	22µM*	-11%	?	3.3%	-5%	1.7
COC(=O)c1ccc2c(=O)n(CCCN3CCOCC3)c(=S)[nH]c2c1	-0.3%	1%	4%	-0.7	.	-4%	-1.7
CCOc1ccccc1-n1c(SCC(=O)Nc2ccccc2C(=O)O)nc2ccccc2c1=O	.	-23%	-21%	?	0.7%	-10%	4.1
Cc1ccccc1CNC(=O)c1csc([C@@H]2C[C@H](O)[C@@H](CO)O2)n1	0.0%	.	.	.	0.5%	.	-2.2
CCn1cc(C(=O)NC(=S)Nc2ccccc2[N+](=O)[O-])cn1	0.7%	79µM*	-10%	.	3.8%	-2%	-10
NNC(=O)CS(=O)(=O)CS(=O)(=O)CC(=O)NN	-0.2%	-12%	5%	1.4	-2.4%	1%[15.4 µM]	-0.5
COc1cc(OC)cc(-c2cc3nc4c(c(N5CCN(c6ncccn6)CC5)n3n2)CCCC4)c1	35µM*	-26%	10%	0.1	.	3%	-1.2
O=C(NNC(=S)Nc1ccc(Cl)cc1)c1cccs1	18%	15%	-9%	5.2	-1.3%	-2%	-12
COc1cccc(/C=C(\CC(=O)O)c2nc3ccccc3s2)c1	.	4%	-2%	-0.2	-0.4%	-1%	-1.1
CCSc1ccc([C@@H]2[C@H]3C(=O)N(C)C(=O)[C@H]3[C@]3(C(=O)OC)CCCCN23)cc1	-1.6%	.	-19%	.	2.6%	-53%[inhibitor]	-0.7
COc1cc(SC)ccc1C(=O)Nc1cccc(C2OCCCO2)c1	.	-1%	?	.	2.1%	10%[15.4 µM]	-3.5
Cc1cc(=O)[nH]c(N2CCN(c3ccc(Cl)cc3)CC2)n1	.	.	-2%	.	6.1%	1%	-1.9
CNC(=O)CNC(=O)Nc1ccc(C)cc1	-1.4%	21%	4%	-0.1	0.4%	3%	-0.9
Cc1cccc(C)c1NC(=O)CSc1nnc(C)n1CC1CCCO1 (stereo not drawn)	.	17%	12%	-13	0.0%	-5%[15.4 µM]	8.2
CC(C)C(NS(=O)(=O)c1ccccc1)C(=O)NC1CCCC1 (stereo not drawn)	1.6%	8%	11%	.	-0.5%	-3%	-4.2
O=C(Cc1ccc(F)cc1)N[C@@H]1c2ccccc2CC[C@@H]1OCc1ccccc1	-2.1%	.	-4%	.	-0.8%	.	-2.6
Cc1cc(C)c(S(=O)(=O)NCCC2CCCN2C)c(C)c1 (stereo not drawn)	0.9%	2%	4%	2.1	.	-18%	-2.6
CC(C)=CCN1CCN(Cc2ccc(C)s2)CC1CCO (stereo not drawn)	?	4%	8%	-2.4	-0.3%	-1%[15.4 µM]	-1.7
O=C(c1ccc(F)cc1)N(c1ccccn1)C1CCCCC1	2.0%	17%	-4%	-5.2	-0.2%	-16%	-7.7
CC(C)=CC(=O)OCC(=O)Nc1cc(C)cc(C)c1	6.5%	-16%	6%	7.3	0.5%	6%[15.4 µM]	-3.7
CN(C)c1ccc(CCc2ccc(N)cc2)cc1	.	.	9%	.	-0.1%	-8%	-2.4
O=C(/C=C/c1ccccc1)Nc1sc2c(c1C(=O)O)CCC2	0.6%	11%	-21%	5.4	11%	-18%	-0.3

Next structures:
SMILES	ClpP mod	Sfp inh	gsp antag	Menin MLL FP FL	PINK1 expr mod	gsp ag	D2 agonist
COc1ccc(/C=C/C(=O)NCC(=O)N/N=C(\C)Cc2ccccc2)cc1	1.4%	19%	-32%	-0.3	-0.3%	-15%[15.4 µM]	0.5
Cc1cc(C)c2c(NC(=O)CCl)nn(C)c2n1	4.1%	16%	3%	-1.0	0.3%	14%	-5.9
Cc1ccc(C(=O)OCC(=O)N2CCNC2=O)c(C)c1	.	.	6%	.	4.9%	4%[15.4 µM]	0.3
O=[N+]([O-])c1cc([N+](=O)[O-])c(Oc2ccc(Br)cc2Br)cc1NN1CCCCC1	-1.8%	5%	3%	-5.6	-0.9%	0%	-7.0
Cc1ccc(-n2c(C)cc(C(=O)CN3CCCCC3)c2C)cc1	.	-3%	17%	6.3	-0.2%	-3%[15.4 µM]	0.3
Cc1csc(NC(=O)CSc2sc3c(O)cc(=O)[nH]c3c2C#N)n1	.	?	-12%	29	4.7%	26%	7.1
CCC(C)c1ccc(Nc2ncccc2C#N)cc1 (stereo not drawn)	-11%	-7%	3%	-0.1	0.8%	?	-1.8
Cc1cccc(C)c1OCCSc1nc2ccccc2n1CC(=O)O	-1.7%	-10%	-3%	-1.9	-1.3%&-0.1%	-29%	-1.7
Cc1ccccc1NC(=O)COC(=O)CCC(=O)c1cccs1	.	.	6%	.	0.0%	-15%[15.4 µM]	1.6
CN(C)c1cc[n+](CC(=O)c2cccs2)cc1	1.2%	6%	-1%	2.0	1.7%	?	-2.1
COC(=O)CSc1ncc(OC)c(OC)n1	1.8%	6%	17%	16	-3.4%	26%	-2.7
NC(=S)N/N=C1\CC(c2ccc3c(c2)OCCO3)Oc2ccc(F)cc21 (stereo not drawn)	.	8%	-15%	4.5	0.5%	?	2.4
O=C(NCC(=O)N1CCCC1)c1ccccc1F	.	12%	7%	-0.7	1.8%	12%[15.4 µM]	-4.7
C/C(=N\Nc1nnc(-c2ccccc2)c(-c2ccccc2)n1)c1cccc([N+](=O)[O-])c1	-0.7%	50µM*	-6%	5.6	30%[38.3 µM]	-60%[inhibitor]	1.6
CN1C(=O)C2(OCCCO2)c2cc(Cl)ccc21	0.1%	4%	13%	-3.5	14%	-1%[15.4 µM]	2.3
Cc1cc(C)nc(N2N=C(CSc3ccc(Cl)cc3)CC2=O)n1	.	?	13%	15	2.1%	1%[15.4 µM]	-2.9
Cc1ccc(-c2nn(-c3ccccc3)cc2/C=C/C(=O)Nc2nccs2)cc1	324%	6%	-14%	0.9	2.7%	10%	2.6
Cc1ccc(NC(=O)COC(=O)Cn2nc(C)c([N+](=O)[O-])c2C)c([N+](=O)[O-])c1	-0.8%	-14%	2%	1.4	-1.0%	-23%	2.5
CCc1nc2ccc(C(=O)NCC3CCCCC3)cn2c1N(CCC(C)C)CCN(C)C	-0.9%	.	.	.	1.7%	.	-1.3
CCN(CC)S(=O)(=O)c1ccc(OC)c(NC(=O)C(C)Oc2ccc3c(C)cc(=O)oc3c2)c1 (stereo not drawn)	25µM*	1%	19%	1.2	17%	?	-3.1
CCN(CC)S(=O)(=O)c1ccc(N2CCN(S(=O)(=O)c3ccccc3)CC2)nc1	.	14%	3%	-8.0	2.4%	-13%[15.4 µM]	1.1
Cn1cnc([N+](=O)[O-])c1NCc1ccccc1	-0.6%	2%	5%	7.7	0.4%	4%	-2.6
Cc1nonc1OC(C)CNCCNc1ccc([N+](=O)[O-])cc1 (stereo not drawn)	.	-5%	9%	3.1	0.5%	-2%[15.4 µM]	-1.0
O=C(Cn1cc2c(n1)CCCC2)Nc1ccccc1Br	-2.8%	-11%	-2%	2.4	0.8%	-2%	2.7
CCOc1ccccc1NC(=O)CSc1n[nH]c(=O)n1-c1ccccc1	2.5%	.	-6%	.	-1.2%	-10%	0.6

Going on with the list.
SMILES	ClpP mod	Sfp inh	gsp antag	Menin MLL FP FL	PINK1 expr mod	gsp ag	D2 agonist
CCn1cc(/C=C/C(=O)Nc2c(C)nn(Cc3ccccc3)c2C)cn1	-7.0%	-15%	-1%	.	-2.0%	-53%[inhibitor]	1.8
CCOCCCNC(=O)Cc1c(C(=O)O)[nH]c2ccc(Cl)cc12	-20%	10%	0%	1.8	-0.1%	11%	-6.7
Cc1cc2c(NC(=O)Nc3ccccc3)cccc2nn1	.	45µM*	-5%	-7.5	-0.4%	-13%	2.4
COc1ccc(C(=O)NCc2ccc3c(c2)OCO3)cc1S(=O)(=O)N1CCCC1	-0.7%	.	6%	.	0.2%	-8%	-3.4
COc1ccc([N+](=O)[O-])cc1NC(=O)CC(c1ccccc1)c1ccccc1	-0.1%	3%	-4%	-0.6	-2.1%	-12%[15.4 µM]	-2.8
COc1ccccc1NC(=O)CSc1nc(O)cc(=O)n1C	-2.3%	14%	?	-0.4	16%[38.3 µM]	-26%	0.7
Cc1cccc(C)c1NC(=O)CSc1nnnn1-c1ccc(C(=O)O)cc1	-0.4%	11%	9%	0.1	-1.2%	?	-0.2
COc1cccc(N2CCN(C(=O)C3CCC(=O)N(C4CCCCCC4)C3)CC2)c1 (stereo not drawn)	-4.0%	8%	-7%	2.6	2.3%	-7%[15.4 µM]	0.1
O=Nc1c(-c2ccccc2)[nH]n(-c2ccccc2)c1=O	.	10%	-27%	-3.0	-0.5%	-10%	-11
C[C@@H]1CN([C@H](C)CO)C(=O)CCCn2nncc2CO[C@H]1CN(C)S(=O)(=O)c1ccc(Oc2ccccc2)nc1	0.3%	.	.	.	-1.0%	?	0.1
COCCNC(=O)CN1C(=O)NC2(CCCc3cc(OC)ccc32)C1=O (stereo not drawn)	-0.3%	15%	14%	3.9	1.1%	9%	-0.8
COc1ccc(-c2cc3ccc(F)cc3cn2)cc1	3.9%	.	4%	.	2.8%	.	1.4
Cc1cc(=O)oc2cc(OCC(=O)Nc3ccc4[nH]c(=O)[nH]c4c3)ccc12	-19%	.	5%	.	13%	-24%	-4.2
O=C(CCCc1ccccn1)c1ccccc1	5.1%	.	-1%	.	-0.5%	0%	-0.4
Cc1ccc(/C=C/C(=O)OCC(=O)Nc2ccc3[nH]c(=O)[nH]c3c2)o1	0.5%	.	-4%	.	-0.3%	10%[15.4 µM]	-0.9
CCC1(COC(NC(=O)c2cccnc2)(C(F)(F)F)C(F)(F)F)COC1	0.0%	19%	2%	-1.8	0.6%	-9%	0.4
Cc1nn(C)cc1/C=C/C(=O)c1ccc(O)cc1	-2.4%	20%	-4%	3.0	3.2%	?	1.3
